Bioassay records as filed in PubChem.
GLA inh pH 4.5 – inhibitors of human alpha-galactosidase A at pH 4.5; 230,000 tested, under 10 active; purified enzyme, 4-MU-alpha-Gal fluorescence, pH 4.5; AID 1467; activity change, negative = inhibition, % at 105 µM; inconclusive = small, poorly fitted or top-dose-only inhibition, or a rising curve; inactive = flat fitted curve, though single readings scatter; no compound was filed as active;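 also: 0% = full activity with enzyme and -100% = basal without enzyme; dose as in the result columns while the protocol names 77 µM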
Rango dissoc inh – inhibition of RanGTP-driven Rango-importin beta dissociation; Potency, µM (highest dose often 46.1 µM), inactives show at the highest dose activity change, negative = inhibition; O95149+P62826; Biochemical FRET Rango-importin beta, RanGTP-induced dissociation; 340,000 tested, 0.071% active; active means falling FRET ratio curve, often poorly fitted, with flat reads before Ran was added; inconclusive means other falling curves, or compound fluorescence or quenching; inactive means flat or rising ratio curve;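 also: potency is read from the fitted curve at half-maximal effect; % of control where 0% means no effect; nearly all actives have a fitted effect of over 45% in size; -100% = wells without RanGTP and RCC1; the record marks most hits as doubtful in a second field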
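Quantitative HTS using a FRET biosensor: 0.1 uM Rango, 0.25 uM importin beta, 0.6 uM Ran, 2 mM GTP, 0.2 uM RCC1 final, PBS with DTT, Tween-20 and BSA. Post-read taken 45 min after Ran addition.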
Rango-impB inh – inhibitors of Rango-importin beta complex formation | Q14974 | Rango CFP/YFP FRET sensor + importin beta, 45 min | Potency, µM (doses to about 92.2 µM), inactives show at the top dose inhibition of complex formation | 340,000 tested, 0.031% active | AID 540263; active = rising FRET ratio curve, often small or poorly fitted; inconclusive = mostly compound fluorescence or quenching in the first reads; inactive = flat curves in all reads;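 also: potency is read from the fitted curve at half-maximal effect; 0% = DMSO wells and 100% = buffer wells lacking importin beta; nearly all actives have a fitted effect of over 15% in size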
Target sequence (Q14974 whole entry, looked up): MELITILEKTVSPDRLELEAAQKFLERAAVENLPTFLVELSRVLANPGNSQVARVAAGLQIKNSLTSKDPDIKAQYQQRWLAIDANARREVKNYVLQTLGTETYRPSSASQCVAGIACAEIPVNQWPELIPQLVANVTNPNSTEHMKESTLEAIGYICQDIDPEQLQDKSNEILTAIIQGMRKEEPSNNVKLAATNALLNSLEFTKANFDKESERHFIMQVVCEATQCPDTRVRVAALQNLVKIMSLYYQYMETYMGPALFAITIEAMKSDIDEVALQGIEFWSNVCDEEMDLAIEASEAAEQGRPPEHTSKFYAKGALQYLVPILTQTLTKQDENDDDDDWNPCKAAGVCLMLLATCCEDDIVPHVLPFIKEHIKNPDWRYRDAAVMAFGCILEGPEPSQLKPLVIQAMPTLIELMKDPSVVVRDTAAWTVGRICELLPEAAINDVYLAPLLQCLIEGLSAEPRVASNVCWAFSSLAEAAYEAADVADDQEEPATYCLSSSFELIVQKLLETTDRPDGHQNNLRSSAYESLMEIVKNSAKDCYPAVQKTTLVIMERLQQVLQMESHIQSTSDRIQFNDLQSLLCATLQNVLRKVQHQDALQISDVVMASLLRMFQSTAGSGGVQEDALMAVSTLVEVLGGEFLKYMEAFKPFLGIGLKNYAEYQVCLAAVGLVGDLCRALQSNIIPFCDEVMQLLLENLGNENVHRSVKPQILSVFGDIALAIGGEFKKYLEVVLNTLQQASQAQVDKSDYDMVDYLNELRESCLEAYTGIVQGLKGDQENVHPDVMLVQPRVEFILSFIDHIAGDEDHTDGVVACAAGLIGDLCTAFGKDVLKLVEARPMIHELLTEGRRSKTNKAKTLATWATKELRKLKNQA
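FRET biosensor Rango (snurportin 1 IBB between N-terminal EYFP and C-terminal Cerulean), 50 nM in PBS/1 mM DTT/0.02% Tween-20/0.1% BSA, preincubated 5 min RT with compound; 0.125 microM importin beta added, 45 min RT, CFP/YFP FRET ratio read.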
miR-21 reporter – miR-21 reporter, rising signal; AID 2288; HeLa miR-21 FLuc reporter, luciferase, 48 h; 340,000 tested, under 10 active; Potency, µM (top dose mostly 38.3 µM), for inactives: at the top dose reporter change, positive = more light; active = well fitted rising curve with a large enough effect; inconclusive = small, poorly fitted or top-dose-only effect; inactive = no such curve, though single readings can be large or run the other way;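 also: % of control where 0% means no effect; miR-21 action dims this reporter so a rising signal means less miR-21 action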
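HeLa miR-21-FLuc reporter line, endogenous miR-21; 2000 cells/well in DMEM/10% FBS; compound titration up to ~40uM final, 48 h, 37 degree Celsius; luciferase detection reagent, 15 min lysis, CCD luminescence.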
Starred values were filed as active, the others as inactive; ? = inconclusive; / = not tested or not shown; & = joins results of further samples. A portion of the library; rates above refer to the full screens.

The line under a structure holds: Rango dissoc inh, GLA inh pH 4.5, miR-21 reporter, Rango-impB inh
Cc1ccc(S(=O)(=O)N2CCC(C(=O)OCC(=O)N(CCC#N)c3ccc(F)cc3)CC2)cc1C
→ 32%, /, /, 2.6%
CN(CCc1ccccc1)C(=O)c1cccc(NC(=O)Cc2cccc(NC(=O)C3CCCN(S(=O)(=O)c4cccc([N+](=O)[O-])c4)C3)c2)c1 (stereo unspecified)
→ 11%, /, /, -1.5%
CC1CN(C(=O)c2ccc(OC3CCN(Cc4ccccn4)CC3)cc2)CCN1C (stereo unspecified)
→ -11%, /, 0%, -4.1%
COc1ccc2[nH]c(=O)c(CN(CCc3ccccc3)C(C)=O)cc2c1
→ 1%, 8, -2%, -1.2%
CCN(CC)CCNc1c2c(c(C#N)c3nc4ccccc4n13)CCCC2
→ ?, 7, -1%, ?
Cc1cc(NC(=O)CSc2nc3ccccc3c(=O)n2-c2ccccc2)no1
→ -11%, 4, -1%, 2.6%
Cc1cccc(OCCC(=O)Nc2cc(S(=O)(=O)N3CCCCC3)ccc2N2CCOCC2)c1
→ 3%, -1, -5%, -1.7%
COC(=O)c1ccc(Oc2coc3cc(OCc4cnn(-c5ccccc5)c4)ccc3c2=O)cc1
→ 16%, -5, -8%, -1.9%
CCOC(=O)c1cc(S(=O)(=O)N2CCCC2)cn1C
→ -6%, /, -5%, -0.9%
Cc1ccccc1Nc1c(-c2ccncc2)nc2ccc(Br)cn12
→ 8%, 0, 8%, 1.0%
O=C(NCCCN1CCOCC1)c1sc2cc([N+](=O)[O-])ccc2c1Cl
→ 1%, -3, -1%, ?
CC(C)CNc1nc(N)c([N+](=O)[O-])c(NC2CCCCC2)n1
→ -6%, /, 1%, -3.1%
Cc1c(/C=N/NC(=O)c2cccs2)c2ccccc2n1Cc1ccccc1Cl
→ ?, 9, -5%, -4.4%
CC1CC(=O)Nc2ccccc2N1S(=O)(=O)c1ccc(Br)cc1 (stereo unspecified)
→ 4%, 4, -7%, 1.7%
O=P(O)(CCc1ccccn1)CN1CCOCC1
→ 0%, 3, 1%, 6.9%
CCOC(=O)CSc1nc2ccccc2c(=O)n1CC(C)C
→ -2%, -3, -1%, -3.3%
CCN(Cc1ccccc1)C(=O)CCS(=O)(=O)c1ccc2c(c1)NC(=O)CO2
→ -16%, /, 1%, 0.5%
CC1Cc2cc(/C(O)=C3/C(=O)C(=O)N(Cc4ccco4)C3c3cccs3)ccc2O1 (stereo unspecified)
→ -18%, -5, -41%, -3.0%
CCOc1cc(/C=N/N=C(N)N)ccc1OCc1ccc(Cl)cc1
→ 0%, ?, ?, 4.8%
O=[N+]([O-])c1ccccc1CNC1CCCCCC1
→ 2%, -2, -5%, -0.8%

The line under a structure holds: Rango dissoc inh, GLA inh pH 4.5, miR-21 reporter, Rango-impB inh
CC1(c2nnc(-c3ccccc3)o2)CC(c2cccc(Cl)c2)=NO1 (stereo unspecified)
→ -15%, -6, 12%, -1.6%
CN=c1scc(C)n1/N=C/c1ccc2c(c1)OCO2
→ ?, -7, -6%, ?
CCN(c1ccccc1)c1nc(C#N)nc(N(CC)c2ccccc2)n1
→ 1%, -1, -4%, 2.4%
COc1ccc(OC)c(Cc2nnc(CCC(=O)N3CCCCC3)o2)c1
→ -28%, -2, -34%, -3.9%
O=C1NC(=Nc2ccc(F)cc2)SC1Cc1ccc(F)cc1 (stereo unspecified)
→ -6%, -7, -10%, -0.2%
CCN(CC)CC(=O)N1CCCC(C(=O)c2ccccc2OC)C1 (stereo unspecified)
→ 5%, -3, -10%, 0.3%
CCCCS(=O)(=O)c1sc2nc(C)cc(C)c2c1N
→ -22%, -9, -13%, ?
Cc1nc(-c2ccccn2)sc1C(=O)Nc1ccc(Cl)c(Cl)c1
→ 0%, -10, -14%, -2.8%
COC(=O)c1c(F)c(F)c(NCCO)c(F)c1F
→ -14%, 3, -16%, 4.6%
CC(=O)c1cccc(NC(=O)N2CCCCCC2)c1
→ -11%, /, -9%, 3.1%
O=C(Nc1cc(N2CCOCC2)ncn1)c1ccc(F)cc1
→ -12%, -1, -45%, -0.4%
COc1ccc(NC(=O)CCN2CCN(c3ccccc3F)CC2)c(OC)c1
→ 17%, /, -2%, -3.2%
CC(C)[C@H](NC(=O)OC(C)(C)C)C(=O)N1CCC(C(=O)N[C@@H](C)C(=O)Nc2ccc(F)cc2)CC1
→ -2%, /, 1%, -0.1%
CCCOc1ccc(/C=N/NC(=O)c2ccc3c(c2)OCO3)c(OCCC)c1
→ 0%, /, 0%, -0.1%
CCOc1c(/C=C(\C#N)C(N)=O)c2ccccc2n1CC
→ 0%, -5, -3%, -3.0%
COc1cccc(N2C(=O)CC(Sc3nc(C)cc(C)n3)C2=O)c1 (stereo unspecified)
→ 8%, /, 5%, -1.0%
Cc1c(NC(=S)NC(=O)c2ccc(Cl)cc2)c(=O)n(-c2ccccc2)n1C
→ -6%, /, /, 1.8%
COc1ccc(CCNC(=O)c2cccnc2Cl)cc1OC
→ 2%, /, /, -1.7%
O=C(CNC(=O)c1ccco1)OCC(=O)c1ccc2c(c1)CCCC2
→ -12%, 6, -6%, 1.8%
Cc1ccc(CNC(=O)c2cccnc2)cc1
→ 8%, /, /, 0.2%

The line under a structure holds: Rango dissoc inh, GLA inh pH 4.5, miR-21 reporter, Rango-impB inh
Cc1cc(C)c2nc(NC(=O)c3cc(C)on3)sc2c1
→ -1%, -6, -26%, -3.3%
O=S(=O)(Cc1ccccc1)/C1=C(\N2CCOCC2)CCCCCC1
→ 1%, 1, -8%, -1.7%
CC(C)CC(=O)N1CC(C)N(C(=O)CC(C)C)CC1C (stereo unspecified)
→ /, 12, -5%, /
Cc1ccc(C)c(C(=O)COC(=O)c2n[nH]c3ccccc23)c1
→ -10%, /, /, -0.8%
c1ccc2c(Nc3ccc(N4CCOCC4)cc3)nc(N3CCOCC3)nc2c1
→ 4%, /, 25%, 6.6%
CCN1CCN(C(c2ccccn2)c2c(NC(=O)c3ccccc3)sc(C)c2C)CC1 (stereo unspecified)
→ -15%, 1, 10%, -0.7%
CCOC(=O)CC1=CSC2=NS(=O)(=O)CCN12
→ 2%, 15, 0%, 1.9%
COc1cc(NS(=O)(=O)c2ccc(NC(=O)Cc3ccccc3)cc2)nc(OC)n1
→ -4%, /, 6%, -0.9%
CN1CCN(CCCC(=O)c2ccc(C3CCCC3)cc2)CC1
→ 14%, 7, -15%, -0.3%
CCOC(=O)/C=C1/SCC(=O)N1CC(=O)Nc1ccc2c(c1)CCC2
→ 8%, /, /, -1.4%
Cc1ccc(C(=O)NNC(=O)c2ccc3c(c2)OCCO3)cc1
→ -13%, /, /, -1.1%
COc1cccc(OCCCCCN2CCOCC2)c1
→ 0%, 5, -18%, -0.4%
CCc1ccc(NC(=O)CSc2nc3nc(C)cc(C)n3n2)cc1
→ 5%, /, 8%&7%, 2.0%
Cc1ccc2nc(SCC(=O)N3CCCC3)[nH]c2c1
→ -10%, 0, -17%, -0.4%
COC(=O)NCC(c1ccco1)N1CCN(c2ccc(F)cc2)CC1 (stereo unspecified)
→ 11%, 4, -4%, -0.7%
CCN(CC)CC(=O)Nc1ccc(C)cc1C(=O)c1ccccc1
→ 0%, 0, -13%, -5.0%
CCCCn1c(-c2ccccc2)nc2c(=O)n(C)c(=O)[nH]c21
→ -2%, 11, 6%, -1.7%
c1ccc(NC2=NCCCCS2)cc1
→ 7%, -4, -6%, ?
O=C(NC1CCC(c2ccccc2)CC1)c1cccnc1 (stereo unspecified)
→ 8%, 5, 2%, 1.3%
Cc1cccc(NC(=O)CN2C(=O)N/C(=C/c3ccc(C)o3)C2=O)c1
→ -20%, -4, -1%, ?

Reformatted field by field: entries from further up
CCc1ccc(NC(=O)CSc2nc3nc(C)cc(C)n3n2)cc1
  Rango dissoc inh = 5%	GLA inh pH 4.5 = /	miR-21 reporter = 8%&7%	Rango-impB inh = 2.0%

CCOC(=O)CC1=CSC2=NS(=O)(=O)CCN12
  Rango dissoc inh = 2%	GLA inh pH 4.5 = 15	miR-21 reporter = 0%	Rango-impB inh = 1.9%

Three of the entries above in order of their number in Rango dissoc inh, descending.
The line under a structure holds: Rango dissoc inh, GLA inh pH 4.5, miR-21 reporter, Rango-impB inh
CCOC(=O)CC1=CSC2=NS(=O)(=O)CCN12
→ 2%, 15, 0%, 1.9%
O=S(=O)(Cc1ccccc1)/C1=C(\N2CCOCC2)CCCCCC1
→ 1%, 1, -8%, -1.7%
Cc1cc(C)c2nc(NC(=O)c3cc(C)on3)sc2c1
→ -1%, -6, -26%, -3.3%

6 entries picked at random from those above:
The line under a structure holds: Rango dissoc inh, GLA inh pH 4.5, miR-21 reporter, Rango-impB inh
CC1Cc2cc(/C(O)=C3/C(=O)C(=O)N(Cc4ccco4)C3c3cccs3)ccc2O1 (stereo unspecified)
→ -18%, -5, -41%, -3.0%
O=C(CNC(=O)c1ccco1)OCC(=O)c1ccc2c(c1)CCCC2
→ -12%, 6, -6%, 1.8%
COc1cc(NS(=O)(=O)c2ccc(NC(=O)Cc3ccccc3)cc2)nc(OC)n1
→ -4%, /, 6%, -0.9%
CCc1ccc(NC(=O)CSc2nc3nc(C)cc(C)n3n2)cc1
→ 5%, /, 8%&7%, 2.0%
CCCOc1ccc(/C=N/NC(=O)c2ccc3c(c2)OCO3)c(OCCC)c1
→ 0%, /, 0%, -0.1%
COC(=O)c1c(F)c(F)c(NCCO)c(F)c1F
→ -14%, 3, -16%, 4.6%

The results go on.
The line under a structure holds: Rango dissoc inh, GLA inh pH 4.5, miR-21 reporter, Rango-impB inh
CCOCCn1c(SCC(=O)OCc2ccccc2)nc2c1c(=O)[nH]c(=O)n2C
→ -10%, 1, -1%, 3.0%
COc1ccc(N(CC(=O)NCCC2=CCCCC2)S(=O)(=O)c2ccccc2)c(OC)c1
→ -16%, -19, 1%, 2.7%
O=C1Nc2cc(C(=O)N3CCN(c4ccccn4)CC3)ccc2S/C1=C\c1ccccc1
→ 28%, /, 0%, 1.7%
Cc1nn(C(=O)c2c(-c3ccccc3)noc2C)c(C)c1N=Nc1cc(C(F)(F)F)cc(C(F)(F)F)c1
→ 0%, 2, -2%, -0.5%
CS(=O)(=O)Nc1nc2n(n1)C(c1ccccc1)CC(c1ccccc1)N2 (stereo unspecified)
→ 4%, -1, -6%, 0.7%
COc1cccc(NC(=O)CSC(N)=O)c1
→ 3%, -1, -17%, 0.1%
COc1cc(OC)cc(C(=O)OCC(=O)NCc2ccc3c(c2)OCO3)c1
→ 6%, 0, 0%, 4.7%
COc1ccc(CN2CCCC(CNC(=O)c3ccc(F)cc3)C2)c(C)c1C (stereo unspecified)
→ 1%, 1, 1%, 0.5%
CCNC(=O)COC(=O)Cc1ccc(Cl)cc1Cl
→ 35%, 10, 1%, 0.8%
COc1cccc(CN(C)C(=O)c2cc(S(=O)(=O)NC3CCCCC3)ccc2C)c1OC
→ 9%, /, /, -2.6%
O=C(/C=N\O)NCCCNCc1ccccc1
→ 0%, -8, 0%, -0.1%
O=C(Nc1c(F)cc(F)cc1Br)c1ccco1
→ -10%, 1, -3%, 0.3%
COC(=O)c1[nH]c2cccc(OC)c2c1NC(=O)CCN1CCC(C(N)=O)CC1
→ /, 6, -6%, /
CCOc1ccccc1N1CCN(CC(=O)NC(C)c2ccccc2)CC1 (stereo unspecified)
→ 14%, /, 2%, -1.6%
O=CN/C=C/c1cc(O)ccc1O
→ -8%, -12, -5%, 0.2%

Compound profiles, as listed above.
Shown for COC(=O)c1[nH]c2cccc(OC)c2c1NC(=O)CCN1CCC(C(N)=O)CC1 → Rango dissoc inh: /; GLA inh pH 4.5: 6; miR-21 reporter: -6%; Rango-impB inh: /
Shown for COc1ccc(CN2CCCC(CNC(=O)c3ccc(F)cc3)C2)c(C)c1C (stereo unspecified) → Rango dissoc inh: 1%; GLA inh pH 4.5: 1; miR-21 reporter: 1%; Rango-impB inh: 0.5%
Shown for COc1ccc(N(CC(=O)NCCC2=CCCCC2)S(=O)(=O)c2ccccc2)c(OC)c1 → Rango dissoc inh: -16%; GLA inh pH 4.5: -19; miR-21 reporter: 1%; Rango-impB inh: 2.7%
